PINK1 modulator = modulators of PINK1 expression; Potency, µM (top dose mostly 76.6 µM), for the others: top-dose activation (PINK1 increase), hits mostly activators; 410,000 tested, 0.2% active; PINK1 immunofluorescence, high-content cytometry, 24 h; AID 624263; active = well fitted activation curve with a large enough effect; inconclusive = small, poorly fitted or top-dose-only effect; inactive = flat fitted curve, though single readings scatter; cell line not stated here;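 note: potency is the fitted concentration of half-maximal effect; % of control where 0% means no effect; nearly all actives have a fitted effect of over 65% in size; a mitochondrial uncoupler was the plate control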
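Stable cell line treated 24 h with compounds at 5 concentrations (CCCP controls), then fixed and immunostained for PINK1 plus nuclear and cell stains; PINK1 immunofluorescence quantified by laser-scanning microplate cytometry.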
TRPML1 ag = activates the human TRPML1 channel; Q9GZU1; TRPML1-expressing cells, Ca2+ dye fluorescence, FDSS; host cell line not named in the record; reference of the full effect not given here; activation, % (no concentration beside the values); 410,000 tested, 0.12% active; in the data active = activation above about 50%; inconclusive = about 30% to 50%; inactive = below about 30%; note: 0% is about no effect; the text of the record puts the active cut at 80%
Target sequence (Q9GZU1 whole entry, looked up): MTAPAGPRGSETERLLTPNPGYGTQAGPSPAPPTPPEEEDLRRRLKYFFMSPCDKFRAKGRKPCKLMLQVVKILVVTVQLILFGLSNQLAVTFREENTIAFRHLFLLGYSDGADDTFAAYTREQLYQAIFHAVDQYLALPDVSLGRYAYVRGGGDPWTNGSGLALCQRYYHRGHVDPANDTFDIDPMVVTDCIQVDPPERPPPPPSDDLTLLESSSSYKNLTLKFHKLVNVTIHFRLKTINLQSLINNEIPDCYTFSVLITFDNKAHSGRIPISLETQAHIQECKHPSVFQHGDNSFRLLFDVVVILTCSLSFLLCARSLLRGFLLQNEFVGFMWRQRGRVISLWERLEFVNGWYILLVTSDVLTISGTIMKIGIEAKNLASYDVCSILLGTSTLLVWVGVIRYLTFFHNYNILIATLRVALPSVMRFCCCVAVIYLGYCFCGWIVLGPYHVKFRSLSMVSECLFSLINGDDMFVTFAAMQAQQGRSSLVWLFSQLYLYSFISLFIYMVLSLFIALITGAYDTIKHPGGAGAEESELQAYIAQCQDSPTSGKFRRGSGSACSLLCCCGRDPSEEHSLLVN
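TRPML1-DL cells, Tet-induced overnight (~16 h, 37 degrees C), loaded 45-90 min at room temperature with Ca8 no-wash calcium dye plus quencher. FDSS fluorescence: 10 s baseline, compound pin-transfer, 110 s agonist read, then EC80 54-4 (4uM final) and 110 s antagonist read.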
Numbers without * were called inactive; ? = inconclusive.

cpd	Structure	PINK1 modulator	TRPML1 ag
1	COc1cc(C2C(C(=O)OC(C)C)=C(C)N=C3SCCC(=O)N32)ccc1OCc1ccccc1 (stereo not drawn)	3.0%	1.6
2	COc1ccc(N=c2nc(-c3ccc(C)cc3)n(-c3ccccc3)s2)cc1	?	-0.8
3	CCCn1c(=O)sc2cc(NC(=O)c3ccc(OC)c(Br)c3)ccc21	-0.1%	1.2
4	Cc1nc2c3ccccc3nc(NNC(=O)CCC(=O)N3CCN(c4cccc(C(F)(F)F)c4)CC3)n2n1	-0.5%	2.9
5	O=C(NCCc1ccccc1)c1ccc2c(c1)N(Cc1ccc(Cl)cc1)C(=O)c1ccccc1S2(=O)=O	1.9%	0.1
6	COc1cccc(CNC(=O)C2CCCN(S(=O)(=O)N(C)c3ccc(F)cc3)C2)c1OC (stereo not drawn)	9.6%	-1.0
7	Cc1ccc(NC(=O)c2nc(-c3ccncc3)no2)c(Cl)c1	0.3%	-0.6
8	COc1ccc(-c2cc(C(C)=O)c(C)n2CCC(=O)NCc2ccc(C)cc2)cc1	0.6%	-0.4
9	CC(C)Oc1ccc(C(=O)Nc2nnc3n2CCS3)cc1	-3.0%	0.7
10	COC(=O)c1sccc1S(=O)(=O)N1CCN(c2ccccc2OC)CC1	0.4%	0.9
11	Cn1c(=O)c2c(-c3ccccc3Cl)n(Cc3ccc(Cl)cc3)cc2n(C)c1=O	1.7%	-0.3
12	Cn1c(=O)c2cc(C(=O)NC3CCCCCC3)sc2c2ccccc21	1.3%	1.0
13	CC(C)c1cnc2c(c1SCC(=O)NCc1ccccc1)c(=O)n(C)c(=O)n2C	-0.2%	1.3
14	CCC(=O)N1CCc2cc(CNS(=O)(=O)c3ccc(C(C)C)cc3)ccc21	5.3%	1.1
15	Cc1ccc(OCCSc2nc3ccccc3n2CCC(=O)O)cc1C	-0.3%	0.1
16	Cc1ccc(-n2c(Cc3ccccc3)nnc2SCc2nc(-c3cccs3)no2)cc1	1.7%	0.3
17	COc1cccc(Nc2nc3cc(Cl)c(Cl)cc3nc2-n2nc(C)cc2C)c1	1.5%	0.1
18	COc1ccc2c(c1)c1c(c(=O)n(Cc3ccccc3)c(=O)n1Cc1cc(C)ccc1C)n2C	0.5%	1.2
19	COc1ccccc1N1CCN(C(=O)c2c(C)oc3ncn(CC(C)C)c(=O)c23)CC1	0.9%	-0.4
20	O=C(NC1CCCCC1)c1c[nH]c2ccc(S(=O)(=O)Nc3ccccc3F)cc2c1=O	4.4%	1.5
21	COc1ccc(-c2cc(OC(=O)c3cccc(Cl)c3)c3c(C)oc(C)c3c(=O)c2)cc1	2.8%	-0.6
22	CCOc1ccccc1NC(=O)C1CCN(S(=O)(=O)c2ccc3[nH]c(=O)ccc3c2)CC1	1.7%	2.1
23	Cn1c(=O)oc2cc(S(=O)(=O)NCCC(=O)Nc3ccc(F)cc3F)ccc21	0.8%	-1.0
24	CC(C)CN(CCCNC(=O)c1cc(=O)[nH]c2ccc(S(=O)(=O)N3CCCC3)cc12)CC(C)C	0.1%	1.8
25	CCc1cccc(NC(=O)C(Cc2ccccc2)NS(=O)(=O)c2ccc3c(c2)c(=O)n(C)c(=O)n3C)c1 (stereo not drawn)	1.1%	-0.6
26	COC(=O)c1ccc(-n2nnc(-c3nsc(NC(=O)c4ccc(Cl)cc4)n3)c2C)cc1	0.6%	0.0
27	COc1cc(Cl)c(C)cc1Nc1ncnc2c1nc1n2CCCC1	7.1%	0.4
28	Cc1c2cnn(CC(=O)N3CCN(c4ccccc4)CC3)c(=O)c2c(C)n1Cc1ccc(F)cc1	-0.7%	1.1
29	CC1CCN(c2ncnc3c2c(-c2ccccc2)cn3-c2ccc(Br)cc2)CC1	0.8%	-0.1
30	CSc1ncc(Cl)c(C(=O)Nc2c(C(=O)c3ccc(Cl)cc3)oc3ccccc23)n1	2.5%	0.4

Compound profiles (already shown). Order of values: PINK1 modulator | TRPML1 ag
`COc1cccc(CNC(=O)C2CCCN(S(=O)(=O)N(C)c3ccc(F)cc3)C2)c1OC` (stereo not drawn) as listed: 9.6% | -1.0
`Cc1ccc(-n2c(Cc3ccccc3)nnc2SCc2nc(-c3cccs3)no2)cc1` as listed: 1.7% | 0.3

Later entries:
cpd	Structure	PINK1 modulator	TRPML1 ag
31	COc1cccc(-c2nc3c(C#N)c[nH]n3c2NC2CCCC2)c1OC	2.9%	1.1
32	CCOc1ccccc1NC(=O)N(Cc1ccc(C)o1)C1CCN(C(C)=O)CC1	-0.3%	-0.6
33	O=C(CCCCn1c(=O)c2ccccc2n(CC(=O)Nc2ccc(F)cc2F)c1=O)NCc1ccccc1Cl	4.2%	-0.9
34	C#CCn1cnc2c(cnn2-c2ccc(F)cc2)c1=O	-1.4%	0.2
35	O=C(Cc1ccccc1)Nc1nnc2n1CCS2	-2.6%	0.4
36	CCC(=O)N1CCc2cc(Br)cc(S(=O)(=O)N3CCN(c4ccc(C(C)=O)cc4)CC3)c21	1.0%	-0.9
37	CCc1ccccc1NC(=O)Cn1c(=O)ccc2cc(S(=O)(=O)N3CCC(C)CC3)ccc21	-3.0%	0.5
38	O=C(c1ccccc1)N1CCN(CCc2ccncc2)CC1	1.0%	1.1
39	Cc1ccc(NC(=O)Cn2c(=O)oc3cc(S(=O)(=O)NCc4ccccc4)ccc32)cc1	5.4%	0.6
40	O=C(CN1C(=O)C2(SCC(=O)N2c2ccccc2)c2ccccc21)NCc1ccccc1Cl (stereo not drawn)	2.6%	1.4
41	Cc1csc2nc(COC(=O)CNC(=O)c3ccccc3Cl)cc(=O)n12	0.3%	1.0
42	O=C(Nc1ccc(Br)cc1)c1cccc(C(=O)Nc2ccc(Br)cc2)c1	5.5%	1.0
43	CCc1ccc(NC(=O)C(NS(=O)(=O)c2cccs2)C(C)C)cc1 (stereo not drawn)	3.9%	-0.6
44	COc1ccccc1NC(=O)c1cc(S(=O)(=O)N2CCN(c3ccccc3Cl)CC2)ccc1F	-0.1%	-1.0
45	Cc1ccc(CNC(=O)c2c(O)nc3ccccn3c2=O)cc1	0.9%	-1.4
46	CC(Nc1ccc(-c2nc(-c3ccncc3)no2)cc1[N+](=O)[O-])c1ccccc1 (stereo not drawn)	-0.3%	-0.5
47	O=C(O)[C@@H](O)[C@@H](O)[C@H](O)[C@H](O)CO	-1.1%	-0.7
48	CCOc1ccc(CNC(=O)C(C)n2ncn3cccc3c2=O)cc1 (stereo not drawn)	-1.5%	-0.1
49	Cc1cccc(NC(=O)Cn2cc(S(=O)(=O)Cc3ccccc3Cl)c3ccccc32)c1	2.7%	1.1
50	O=C(Cc1ccc(Cl)cc1)NCCc1csc2nc(-c3ccccc3F)nn12	0.9%	1.2
51	CC1CCc2c(sc3nnn(CCCCOc4ccc(Cl)cc4)c(=O)c23)C1 (stereo not drawn)	1.3%	1.3
52	Cc1cccc(S(=O)(=O)c2cn(Cc3ccccc3)c3cc(N4CCCCC4)c(F)cc3c2=O)c1	8.8%	1.7
53	Fc1ccccc1CNCCCSc1nnnn1-c1ccccc1	0.8%	-0.4
54	COc1ccc(N2CCN(C(=O)CCc3c(C)nc4cc(-c5ccc(OC)cc5OC)nn4c3C)CC2)cc1	0.7%	-0.6
55	CCOc1ccc(CCNS(=O)(=O)c2c(C)nc3sc(C)cn3c2=O)cc1OCC	2.1%	-0.3
56	COC(=O)c1ccc(OCC2c3cc(OC)c(OC)cc3CCN2C(=O)Cc2ccc(OC)cc2)cc1 (stereo not drawn)	-4.7%	3.2
57	Clc1ccc(CN2CCc3nc(Nc4ccc5c(c4)OCCO5)ncc3C2)cc1	1.5%	2.1
58	O=C(NCCCN1CCN(c2cccc(Cl)c2)CC1)c1nnc(Cc2ccc(F)cc2Cl)o1	-0.2%	0.8
59	Cc1nn2cc(-c3ccc(OC(C)C)cc3)nc2s1	-0.5%	-0.4
60	COc1cccc(NC(=O)Cn2c(=O)n(Cc3ccc(C(=O)NCc4ccc5c(c4)OCO5)cc3)c(=O)c3ccccc32)c1	0.7%	0.5

Additional structures.
cpd	Structure	PINK1 modulator	TRPML1 ag
61	CCC(c1nnnn1Cc1ccccc1)N(Cc1ccccc1)Cc1cc2cc(C)ccc2[nH]c1=O (stereo not drawn)	1.3%	0.2
62	CCOCCCN1C(=O)CN(C2CCCCCC2)C(=O)C1c1ccc(OC(C)C)c(OC)c1 (stereo not drawn)	2.1%	0.0
63	CCOC(=O)c1c(-c2ccccc2)oc2ccc(NS(=O)(=O)c3ccc(C)cc3)cc12	24%	0.4
64	CCOc1ccccc1NC(=O)Cn1c(=O)n(-c2ccc(F)cc2)c(=O)c2sc3ccccc3c21	1.1%	-0.5
65	COc1ccc(NC(=O)C2=C(C)Nc3ncnn3C2c2ccc(C)o2)cc1 (stereo not drawn)	-4.9%	0.6
66	O=C(Cn1c(=O)n(Cc2ccc3c(c2)OCO3)c(=O)c2oc3ccccc3c21)Nc1ccccc1	1.6%	1.0
67	Cc1ccc(NC(=O)c2ccc3nc(Cc4ccccc4)oc3c2)cc1F	7.8%	4.4
68	CCOc1ccc(C(c2c(O)cc(C)n(CCOC)c2=O)N2CCN(c3ccccc3)CC2)cc1 (stereo not drawn)	0.1%	-0.6
69	O=C(Nc1cc(C(F)(F)F)ccc1Cl)c1ccc2c(c1)CCN2S(=O)(=O)c1ccccc1	0.7%	0.1
70	Cc1cccc(C)c1NC(=O)CCC(=O)N1Cc2ccccc2Oc2ncccc21	-0.4%	-0.6
71	COc1ccc2c(c1)CCc1c(C(=O)Nc3ccc(C#N)cc3)noc1-2	5.3%	-0.8
72	CC(C)CCNC(=O)C1CCN(C(=O)c2cc3sccc3n2Cc2ccc(Cl)cc2)CC1	6.9%	1.0
73	Cc1ccc(-c2nnc(Nc3ccc(O)cc3)c3ccccc23)cc1S(=O)(=O)N1CCCCC1	2.0%	3.5
74	O=C(C1CCN(c2ncnc3c2nc2n3CCCCC2)CC1)N1CCN(c2ccccc2)CC1	6.7%	1.2
75	CCS(=O)(=O)N1CCCc2cc(C(=O)Nc3cc([N+](=O)[O-])ccc3C)ccc21	1.5%	0.1
76	CCOC(=O)c1cnc2c(ccc3ccccc32)c1Nc1ccc(OCC)cc1	2.2%	0.1
77	Cc1cc(F)ccc1NC(=O)C1CCC(CNS(=O)(=O)c2ccc3c(c2)CCCC(=O)N3)CC1 (stereo not drawn)	7.6%	-0.9
78	COc1ccc(-c2cn3c(n2)sc2cc(C(=O)NCCCN4CCCCC4)ccc23)cc1	-0.3%	0.6
79	Cc1ccc(S(=O)(=O)NCCc2nnc3ccc(SCC(=O)Nc4ccc(F)cc4F)nn23)cc1	0.3%	-0.7
80	CCOc1ccc(OCC)c(NC(=O)c2cnc3c(-c4ccccc4)c(C)nn3c2C)c1	0.7%	2.3
81	COc1ccc(CCC(=O)NC2CC(=O)N(c3ccc(F)cc3)C2)cc1 (stereo not drawn)	-0.2%	0.6
82	CCOc1ccc(/C=C/c2nc3ccccc3n2S(=O)(=O)c2cccc(Cl)c2)cc1	0.9%	-0.7
83	CC(C)Oc1ccc(C(=O)N2CCC(c3nc4ccccc4o3)CC2)cc1	1.7%	5.1
84	CCCCn1cc(S(=O)(=O)c2cc(C)ccc2C)c(=O)c2cc(F)c(F)cc21	-0.2%	-0.8
85	CSc1ccc(/C=C/c2nc3ccccc3n2S(=O)(=O)c2ccc(F)c(C)c2)cc1	0.4%	2.4
86	Cc1ccc(N2CC(NC(=O)c3ccc(S(=O)(=O)N4CCOCC4)cc3)CC2=O)cc1 (stereo not drawn)	-0.6%	-0.9
87	COc1ccc(C(=O)Nc2ccc(-n3nncc3-c3ccc(OC)c(OC)c3)cc2)cc1	0.8%	0.7
88	Cc1ccccc1NC(=O)c1ccc(F)c(S(=O)(=O)N2CCc3ccccc3C2)c1	3.4%	2.6
89	CCc1ccc(S(=O)(=O)Nc2cc3c(C(=O)OCc4ccccc4)c(C)oc3c3ccccc23)cc1	7.4%	-0.5
90	Cc1ccc(C(=O)COC(=O)c2cc(-c3ccccc3)nc3ccccc23)cc1C	2.7%	-0.6

Some values from the list.
CCCCn1cc(S(=O)(=O)c2cc(C)ccc2C)c(=O)c2cc(F)c(F)cc21 | PINK1 modulator = -0.2%
Cc1ccccc1NC(=O)c1ccc(F)c(S(=O)(=O)N2CCc3ccccc3C2)c1 | TRPML1 ag = 2.6

Compounds from the list above that have a CF3 group (2):
cpd	Structure	PINK1 modulator	TRPML1 ag
4	Cc1nc2c3ccccc3nc(NNC(=O)CCC(=O)N3CCN(c4cccc(C(F)(F)F)c4)CC3)n2n1	-0.5%	2.9
69	O=C(Nc1cc(C(F)(F)F)ccc1Cl)c1ccc2c(c1)CCN2S(=O)(=O)c1ccccc1	0.7%	0.1

Additional entries
cpd	Structure	PINK1 modulator	TRPML1 ag
91	O=C(Nc1cc(Cl)cc(Cl)c1)c1ccc(F)c(S(=O)(=O)NC2CCCCC2)c1	?	0.2
92	CCCCN(CC)C(=O)c1nn(-c2ccc(OC)cc2)c(=O)c2c1c1ccccc1n2C	0.6%	3.0
93	CCOC(=O)c1c(-c2ccccc2)oc2ccc(N(C(C)=O)S(=O)(=O)c3ccc(CC)cc3)cc12	1.3%	-0.5
94	COc1cc(OC)c(NC(=O)C2CCN(C(=O)c3sc4nc[nH]c(=O)c4c3C)CC2)cc1Cl	-0.9%	0.6
95	COc1ccc(CNC(=O)CCCN2C(=O)COc3ccc(C)cc32)cc1	0.3%	-0.1
96	Cc1ccc(OCC(=O)Nc2nc(-c3ccc(Br)cc3)ns2)cc1	0.8%	1.8

Bioassay records from PubChem BioAssay.

A portion of the library; count on the stated rates, not on these rows.
